Bioassay records: PubChem BioAssay, ICCB-Longwood Screening Facility, Harvard Medical School
Ba CapD inh: Bacillus anthracis CapD inhibitors, primary screen, biochemical, fluorescence intensity; 140,000 compounds, 0.23% hits; AID 492967, 2010; CapD gamma-glutamyltranspeptidase (Bacillus anthracis Ames Ancestor); z-score (test concentration not listed); purified CapD enzyme, fluorescence intensity read-out; active compounds read low; some hits fall short of the stated cut;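 active means z-score under -4 in either of two replicates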;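 further: stock transfer was 100 nL into about 40 µL; score is relative to mean and spread of the plate; one replicate is shown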
AID504770: growth inhibition of E. coli YBA685, primary screen, V. cholerae RctB inhibitors | z-score (concentration not given with the values) | 130,000 compounds, 0.27% hits | E. coli YBA685 rctB-dependent plasmid, OD600 growth, 3 h; active compounds read low;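 active means z-score under -2 on both plates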;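 further: wells of about 30 µL received 100 nL stock; score is relative to mean and SD of the test wells; the first replicate is given; strong numbers were not always called active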
* hit, by the source's call.

For Cc1cc(C)c2cc(C(=O)N3CCC(N4CCCCC4)CC3)[nH]c2c1 the results were Ba CapD inh 1.4 and AID504770 0.75.
`Cc1ccc(NC(=O)NCC2CN(CC(C)C)CCO2)cc1` (stereo not given) gave AID504770 -1.4.
O=C(ON1C(=O)c2cccc3cccc(c23)C1=O)c1ccncc1 was read as Ba CapD inh -1.6 and AID504770 0.8.
`CCC(C)NC(=O)Cc1ccc(OC)cc1` (stereo not given) gave Ba CapD inh 0.78 and AID504770 0.5.
`COc1ccccc1C1NC(C(=O)O)Cc2c1[nH]c1ccccc21` (stereo not given) gave Ba CapD inh 3.7.
Screening CCOc1ccc(NC(=O)CSc2nc3ccccc3c(=O)n2CC2CCC(C(=O)NCc3ccco3)CC2)cc1 (stereo not given) returned Ba CapD inh -1.
Cn1cc(S(=O)(=O)N2CCCC2)cc1C(=O)N1CCc2ccccc2C1 was read as Ba CapD inh 0.17 and AID504770 -0.15.
Cc1ccc2c(c1)NC(c1cc(Cl)cc(Cl)c1O)c1cccn1-2 (stereo not given) was read as Ba CapD inh 0.53.
Cc1ccccc1/C=C1\Cc2ccccc2C1=O was read as Ba CapD inh -0.2 and AID504770 0.35.
Screening Cc1nc(-c2cccc(Cl)c2)cs1 returned Ba CapD inh -0.16 and AID504770 -0.8.
CCOC(=O)c1sc(N)c(C#N)c1CSc1ncnc2sc3c(c12)CCC3 was read as AID504770 -0.85.
`COc1cc2ncc(S(=O)(=O)c3ccccc3)c(N3CCN(c4ccccc4F)CC3)c2cc1OC` gave Ba CapD inh -1 and AID504770 3.3.
Screening CCn1c(Cn2nc(C(=O)O)c3ccccc3c2=O)nc2cc(S(=O)(=O)N(C)C)ccc21 returned AID504770 0.05.
Screening CS(=O)(=O)c1nsc(S(C)(=O)=O)c1C#N returned Ba CapD inh 0.49 and AID504770 -0.5.
`C#CC(CC)(CC)NC(=O)COc1ccccc1Cl` gave AID504770 0.25.
COc1ccc(CCN(C)CC(=O)Nc2c(C)cc(C)cc2C)cc1OC was read as Ba CapD inh -0.15 and AID504770 0.
CC(=O)Nc1ccc(OCC(O)Cn2cnc3ccccc32)cc1 (stereo not given) was read as Ba CapD inh -0.14 and AID504770 -0.2.
CCOc1ccc(C2C(N3C(=O)c4ccccc4C3=O)C(=O)N2c2ccccc2F)cc1 (stereo not given) was read as Ba CapD inh 0.06.
Screening Clc1ccc2nonc2c1 returned Ba CapD inh 0.12.
`CC(C(=O)O)N1C(=O)/C(=C/c2ccccc2)SC1=S` (stereo not given) gave Ba CapD inh -1.5.
CC1(C)Cc2ccccc2C(=NCC(=O)O)N1 was read as AID504770 0.2.
`COCCn1c(=C(C#N)C#N)s/c(=C/c2ccc(C)s2)c1=O` gave AID504770 0.5.
Screening Cc1ccc(S(=O)(=O)NNC(=O)c2ccccc2-n2cccc2)cc1 returned Ba CapD inh 0.07.
`O=C(Nc1ccccc1)c1ccc(N2C(=O)CCC2=O)cc1` gave Ba CapD inh 0.085 and AID504770 -0.5.

5 records drawn at random from those above:
Screening Cc1ccc(S(=O)(=O)NNC(=O)c2ccccc2-n2cccc2)cc1 returned Ba CapD inh 0.07.
COc1ccc(CCN(C)CC(=O)Nc2c(C)cc(C)cc2C)cc1OC was read as Ba CapD inh -0.15 and AID504770 0.
CCOc1ccc(C2C(N3C(=O)c4ccccc4C3=O)C(=O)N2c2ccccc2F)cc1 (stereo not given) was read as Ba CapD inh 0.06.
`CC(C(=O)O)N1C(=O)/C(=C/c2ccccc2)SC1=S` (stereo not given) gave Ba CapD inh -1.5.
`O=C(Nc1ccccc1)c1ccc(N2C(=O)CCC2=O)cc1` gave Ba CapD inh 0.085 and AID504770 -0.5.

Remaining list, next part.
Screening C(=N\n1nnnc1Nc1ccccc1)/c1ccc(OCc2ccccc2)cc1 returned Ba CapD inh 8 and AID504770 0.2.
For COc1ccc(N2CCN(C(=O)CCS(=O)(=O)c3ccc4c(c3)NC(=O)CO4)CC2)cc1 the results were Ba CapD inh -0.02 and AID504770 -1.3.
For COC(=O)CCc1c(C)nn(-c2ccc(C(=O)NNC(=O)C3=C(n4c(C)ccc4C)CC=C3)cc2)c1C the results were Ba CapD inh -0.15.
For COC(=O)C1=C(C)OC(N)=C(C#N)C1c1ccccc1C(F)(F)F (stereo not given) the results were Ba CapD inh 0.8.
c1ccc(Cc2ccccc2-c2nnc(-c3cccnc3)o2)cc1 was read as AID504770 -0.95.
CN1C(=O)CS/C1=N/N=C/c1cn(-c2ccccc2)nc1-c1ccccc1 was read as Ba CapD inh -0.84 and AID504770 -0.3.
`COc1ccc(Oc2cc(CS(=O)c3ccc(Cl)cc3)nc(C)n2)cc1` (stereo not given) gave Ba CapD inh -0.15.
Screening O=C(NCCc1ccccc1)c1cnn2cccnc12 returned Ba CapD inh 8.6 and AID504770 -1.1.
CN1CCN(c2ncnc3c2cnn3-c2ccccc2)CC1 was read as AID504770 -0.9.
`Cc1cccc(NC(=O)Cn2c(=O)n(CCC(=O)NCc3ccco3)c(=O)c3ccccc32)c1` gave Ba CapD inh 0.57 and AID504770 -1.1.
COc1cccc(/C=C/C(=O)OCC(=O)Nc2ccccc2)c1 was read as Ba CapD inh 31 and AID504770 -0.2.
For Cc1ccc2c(cnn2C(=O)CCC(=O)NCc2ccccc2)c1 the results were Ba CapD inh -0.64 and AID504770 0.95.
Cn1c(CCCNC(=O)Cc2ccccc2)nc2ccccc21 was read as Ba CapD inh -1.1 and AID504770 -0.25.
`O=C(OC1(C(F)(F)F)C(=O)Nc2cc3c(cc21)OCCO3)c1ccc(S(=O)(=O)N2CCCCCC2)cc1` (stereo not given) gave AID504770 -0.05.
`COc1ccc(-c2nc3c4cnn(-c5cccc(C)c5)c4ncn3n2)cc1` gave Ba CapD inh -0.15 and AID504770 -0.2.
`COc1cccc2c1c(NC(=O)c1cc3ccccc3s1)nn2C` gave Ba CapD inh 1.8 and AID504770 0.75.
`C=CCC(N)(CC=C)c1ccc(C)cc1` gave Ba CapD inh -0.1 and AID504770 -0.45.
O=C(OCC(=O)N1CCCCC1)c1ccc(-c2nc3ccccc3s2)s1 was read as AID504770 -0.2.
`Cc1cc(/C=C2/NC(=O)N(Cc3ccccc3F)C2=O)c(C)n1C` gave Ba CapD inh 1.3 and AID504770 1.9.
Screening COc1ccc(/C=C2\SC(=O)N(CCNC(=O)[C@@H]3CCCN3C(=O)OC(C)(C)C)C2=O)cc1 returned AID504770 0.75.
COC(=O)CSc1ncnc2c(C)csc12 was read as Ba CapD inh 0.15.
Cc1cc2c(cc1S(=O)(=O)N1CCOCC1)n(C)c(=O)c(=O)n2C was read as Ba CapD inh 4.9 and AID504770 0.7.
`COc1ccc(NC(=O)COc2cccc(Oc3ccccc3)c2)cc1` gave Ba CapD inh -0.96 and AID504770 2.6.
O=C(CCS(=O)(=O)c1cc(Br)cc2c1N(C(=O)C1CC1)CC2)N1CCCCCC1 was read as Ba CapD inh -0.62 and AID504770 -0.5.
For O=C(c1sc2cc([N+](=O)[O-])ccc2c1Cl)N1c2ccccc2CCc2ccccc21 the results were Ba CapD inh -0.59.
`Cc1ccc(Oc2cccc(F)c2C#N)cc1` gave Ba CapD inh 0.09.
Screening N#CCCn1cc(C(=O)Nc2ccccc2Cl)c(-c2ccc(F)cc2)n1 returned Ba CapD inh -0.39 and AID504770 -0.15.
Screening FC(F)(F)c1cccc(NC(=S)N2CCn3cccc3C2c2cccnc2)c1 (stereo not given) returned Ba CapD inh -0.18 and AID504770 -0.1.
Screening FC(F)(F)c1cc(-c2ccccc2)nc(N2CCCC2)n1 returned Ba CapD inh 0.2.
`O=C(CSc1c(-c2ccccc2)c2cc(Cl)ccc2[nH]c1=O)N1CCN(C(=O)c2ccco2)CC1` gave Ba CapD inh 3.9 and AID504770 0.8.
Cc1cc(C)cc(C(=O)N2c3ccccc3N3C(c4c(C)c(C)cc(C)c4C)=NON23)c1 was read as Ba CapD inh -0.15.
Screening CCOC(=O)C1=C(O)/C(=C/c2ccc(OCC)c(OCC)c2)SC1=Nc1ccc(OCC)cc1 returned Ba CapD inh -0.29.
For COc1cc(C(=O)Oc2ccc(Cl)c3cccnc23)cc(OC)c1OC the results were Ba CapD inh 3.1 and AID504770 -0.4.
For CCN(CC)C(=O)C1CCN(S(=O)(=O)c2ccc(C)cc2)CC1 the results were AID504770 0.4.
`c1ccc(CCN2CN(Cc3ccccc3)c3nc4ccccc4n3C2)cc1` gave Ba CapD inh 0.28 and AID504770 0.3.
Screening CCOC(=O)N1CCC(Nc2nc(N3CCCC3)nc(N3CCCC3)n2)CC1 returned Ba CapD inh -0.04 and AID504770 -0.5.
Screening CC1CCCCN1CCCNS(=O)(=O)c1ccccc1Br (stereo not given) returned Ba CapD inh -0.11.
Screening NNc1nc(-c2ccccc2)cc(-c2ccc(Br)cc2)n1 returned Ba CapD inh 0.42 and AID504770 -0.05.
For CCCNC(=O)Nc1cccc(CC)c1 the results were Ba CapD inh -1.6 and AID504770 2.5.
Screening COc1ccc(N2CCN(C(=O)c3ccc(C#CC4(O)CCCCC4)cc3)CC2)cc1 returned Ba CapD inh -0.01 and AID504770 -0.8.
COc1ccc(CNc2ncn[nH]2)cc1OC was read as Ba CapD inh 0.15 and AID504770 -0.15.
`Cc1nc(Nc2ccccc2)nc(Nc2ccccc2)c1[N+](=O)[O-]` gave Ba CapD inh -0.11.
Screening COCc1cc(C)nc2sc3c(=O)n(Cc4ccccc4)nnc3c12 returned Ba CapD inh -0.19 and AID504770 0.25.
`CCC(Cc1cccc(O)c1)C(=O)O` (stereo not given) gave Ba CapD inh -0.12 and AID504770 2.1.
Cc1csc(C(C(=O)O)c2ccccc2)n1 (stereo not given) was read as Ba CapD inh 0.49 and AID504770 -0.45.
For O=c1[nH]c2ccc(S(=O)(=O)N3CCCC3)cc2s1 the results were Ba CapD inh 5.3 and AID504770 1.6.
Screening O=C1c2ccccc2C2(c3cc(C(F)(F)F)cc(C(F)(F)F)c3)NCCN12 (stereo not given) returned Ba CapD inh 0.26.
Cn1c2c(c(=O)n(C)c1=O)[C@@H]1c3c(ccc4ccccc34)OC[C@@H]1CO2 was read as Ba CapD inh 0.12.

For reference, some entries already given.
For Cc1cc(C)c2cc(C(=O)N3CCC(N4CCCCC4)CC3)[nH]c2c1 the results were Ba CapD inh 1.4 and AID504770 0.75.
`Cc1ccc(NC(=O)NCC2CN(CC(C)C)CCO2)cc1` (stereo not given) gave AID504770 -1.4.
O=C(ON1C(=O)c2cccc3cccc(c23)C1=O)c1ccncc1 was read as Ba CapD inh -1.6 and AID504770 0.8.
`CCC(C)NC(=O)Cc1ccc(OC)cc1` (stereo not given) gave Ba CapD inh 0.78 and AID504770 0.5.

Other results follow.
For Cn1cccc1C(=O)OCc1ccc(C(C)(C)C)cc1 the results were AID504770 1.7.
For Cc1cc(C)c(C(=O)O)c(CC(C)(C)C(=O)N2CCN(C(=O)C3COc4ccccc4O3)CC2)c1 (stereo not given) the results were Ba CapD inh 0.33.
O=C(NC1Cc2ccccc2C1)c1cncc(Br)c1 was read as Ba CapD inh -0.18.
Screening COc1ccc(S(=O)(=O)N(CC(=O)NC2CC2)C2CCCCC2)cc1Cl returned Ba CapD inh 0.05 and AID504770 0.05.
`O=C(CSc1nc2ccccc2o1)N1CCNC1=O` gave Ba CapD inh 0.2 and AID504770 0.45.
`Cn1c(SCc2cc(=O)[nH]c3ccccc23)nc2ccccc2c1=O` gave Ba CapD inh 0.16 and AID504770 -0.65.
`CCOC(=O)c1c(C)n(-c2cccc(C)c2)c2ccc(O)cc12` gave Ba CapD inh 4 and AID504770 0.45.
`COc1cc(OC)nc(C2CCN(C(=O)c3cccs3)CC2)n1` gave Ba CapD inh 0.53.
For Cn1c(SCC(=O)N=S(C)(=O)c2ccc(Cl)cc2)nnc1C(F)(F)F (stereo not given) the results were Ba CapD inh -0.11 and AID504770 -0.4.
Screening COc1ccc(OC)c(C2=NCC(=O)Nc3c2oc2ccc(Cl)cc32)c1 returned Ba CapD inh -0.78.
O=C(CN1CCC(c2nc3ccccc3s2)CC1)N(C1CCCCC1)C1CCS(=O)(=O)C1 (stereo not given) was read as AID504770 0.65.
CN(C)CCCNc1nc2ccccc2nc1NS(=O)(=O)c1ccc(Cl)cc1 was read as AID504770 -0.05.
`Cc1ccc2nc(SCN3C(=O)c4ccccc4C3=O)[nH]c2c1` gave AID504770 -2.5.
For Cc1nc2c(c(C)nn2C(C)(C)C)c(C)c1CCC(=O)N1CCCCCC1 the results were Ba CapD inh 0.17 and AID504770 0.5.
C=CCc1cc([N+](=O)[O-])cc2c1OC1(C=C2)N(c2ccccc2)c2ccccc2C1(C)C (stereo not given) was read as Ba CapD inh -0.4.
For CC(C)NC(=O)Nc1ccccc1C(=O)O the results were AID504770 -1.
CCOC(=O)c1sc(NC(=O)CNC(=O)Cn2cnc3sc(C)c(C)c3c2=O)nc1C was read as Ba CapD inh 0.015.
Screening CNC(=S)N1CCN(c2ccccc2OC)CC1 returned Ba CapD inh -0.48 and AID504770 -0.8.
For COc1cc(/C=c2\sc3nc4ccccc4n3c2=O)cc(Cl)c1OCc1cccc(C(=O)O)c1 the results were Ba CapD inh 0.12.
`CNS(=O)(=O)c1ccccc1C(=O)N/N=C/c1ccc(OC)c(OC)c1` gave AID504770 -0.3.
